High-throughput results as filed in PubChem BioAssay.
VDR inhibitor = vitamin D3 receptor (human) inhibition; P11473; VDR-SRC2-3 peptide fluorescence polarization, 2 h; Potency, µM, without a hit: max response, negative = inhibition, actives largely listed as inhibitors; hit rate 0.93% among 400,000; active = well fitted inhibition curve with a large enough effect; inconclusive = small, poorly fitted or top-dose-only effect, or another doubt; inactive = no such curve, though single readings can be large or run the other way; note: series mostly up to about 120 µM
Target sequence (P11473 whole entry, looked up): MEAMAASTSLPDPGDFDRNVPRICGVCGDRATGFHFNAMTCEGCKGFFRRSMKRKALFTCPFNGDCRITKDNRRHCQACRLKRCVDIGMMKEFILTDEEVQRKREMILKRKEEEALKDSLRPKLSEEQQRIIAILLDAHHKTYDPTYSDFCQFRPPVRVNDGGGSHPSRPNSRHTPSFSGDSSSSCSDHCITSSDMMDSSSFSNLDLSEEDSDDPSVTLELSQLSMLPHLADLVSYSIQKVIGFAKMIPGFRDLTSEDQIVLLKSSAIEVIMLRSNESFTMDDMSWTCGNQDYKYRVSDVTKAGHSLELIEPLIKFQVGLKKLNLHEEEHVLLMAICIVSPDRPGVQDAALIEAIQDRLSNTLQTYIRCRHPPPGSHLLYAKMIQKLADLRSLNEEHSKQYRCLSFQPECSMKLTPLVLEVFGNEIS
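Signal is fluorescence polarization, reporting how far test compounds block the interaction of VDR with the SRC2-3 coregulator peptide after a 2 h room-temperature incubation.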
Starred values were filed as active, the others as inactive; ? = inconclusive; & = joins results of further samples; [ ] = dose if it differs, or a comment. % is set by controls: 0 for no effect and ±100 for the full control effect; potency is the fitted concentration of half-maximal effect. Not all compounds are listed. The share of hits here may be higher or lower than overall.

SMILES	VDR inhibitor
CCOC(=O)/C(C#N)=C/c1c(Oc2cc(C)cc(C)c2)nc2ccccn2c1=O	-8%
C=C(C)CCC(C)N1CCC(n2nccc2NC(=O)CCOc2ccccc2)CC1 (stereo not drawn)	14%
COc1ccccc1/C=C/C=N/NC(=O)c1cc(-c2ccc(C)o2)[nH]n1	-21%
CCCC(=O)c1c[nH]c(C(=O)NCc2cccnc2)c1	-16%
COc1cccc(NC(=O)Cn2c(=O)n(-c3ccc(C)cc3)c(=O)c3ccccc32)c1	-4%
COc1cc(OC)c(CN2CCCCCCC2)cc1Br	0%
CCC1CCc2c(sc(NC(=O)C3CC=CCC3C(=O)O)c2C#N)C1 (stereo not drawn)	?
COc1ccccc1-n1cc(C(=O)NCC(=O)NCc2ccc(F)cc2)c2ccccc2c1=O	26%
COc1ccc(-n2c(=O)c(CCC(=O)N3CCN(c4ccccc4O)CC3)nc3ccccc32)cc1	?
CCCC(=O)Nc1ccc(S(=O)(=O)Nc2nccs2)cc1	-32%
CCOc1ccc(CCNC(=O)c2ccc(NC3=NC4CS(=O)(=O)CC4S3)cc2)cc1 (stereo not drawn)	-13%
CN1N=C(C(=O)N2CCCC(N3CCN(c4ccc(F)cc4)CC3)C2)CCC1=O (stereo not drawn)	6%
CCCc1cc(=O)[nH]c(SCC(=O)N2CCCCCC2)n1	6%
Cc1ccc(CCNc2nc3ccccc3c3nc(-c4cccnc4)nn23)cc1	-5%
CN(C)C(=O)c1nc2ccc(Cl)cn2c1CNCc1cccc(OC(F)(F)F)c1	7%

Not a retest: an excerpt of the list.
SMILES	VDR inhibitor
CCOC(=O)/C(C#N)=C/c1c(Oc2cc(C)cc(C)c2)nc2ccccn2c1=O	-8%
C=C(C)CCC(C)N1CCC(n2nccc2NC(=O)CCOc2ccccc2)CC1 (stereo not drawn)	14%
COc1ccccc1/C=C/C=N/NC(=O)c1cc(-c2ccc(C)o2)[nH]n1	-21%
CCCC(=O)c1c[nH]c(C(=O)NCc2cccnc2)c1	-16%
COc1cccc(NC(=O)Cn2c(=O)n(-c3ccc(C)cc3)c(=O)c3ccccc32)c1	-4%

Following part.
SMILES	VDR inhibitor
NC(=O)c1cccc(-c2cnc(N)c(C(=O)c3cccnc3)n2)c1	13%
O=C(CN1C(=O)c2ccccc2C1=O)Nc1ccccc1C(F)(F)F	1%
O=C(c1ccco1)N1CCCN(Cc2nc(Cc3ccccc3)no2)CC1	-2%
N/C(=N\OC(=O)CC1CCCCC1)c1cccc([N+](=O)[O-])c1	-10%
COc1ccc(S(=O)(=O)N2CCN(C(=O)CSC(=S)N3CCCC3)CC2)cc1	-13%
O=C1CCCC(O)=C1N=Nc1ccc2c(c1)OCO2	-12%
CCCCNC(=O)c1ccc2c(c1)NC(=O)C(C(C)C)N2 (stereo not drawn)	-4%
N#Cc1cccc(-c2nccc(NCc3cccnc3)n2)c1	-8%
CCN(C1CCCCC1)S(=O)(=O)CCNC(=O)c1ccc2c(c1)OCO2	-6%
O=C(O)C1CCCN1S(=O)(=O)c1ccc(Br)cc1 (stereo not drawn)	-12%
CCc1cccc(CC)c1NC(=O)Cc1csc(C)n1	-5%
NCCC(=O)NC[C@H]1O[C@@H](n2cnc3c(N)ncnc32)[C@H](O)[C@@H]1O	-9%
CC(C)[C@H](NC(=O)c1ccccc1)C(=O)NC1CCCCCCC1	12%
COC(=O)C1=C(C)N(Cc2ccccc2)C(=NCc2cc(OC)c(OC)c(OC)c2)N[C@H]1c1ccc(Br)cc1	-11%
Cc1[nH]c(C)c(S(=O)(=O)N2CCCCC2)c1C(=O)N1CCCCC1	-3%
CC(=O)Nc1ccc(S(=O)(=O)NCCc2csc3nc(-c4cccc(C)c4)nn23)cc1	12%
COc1ccc2nc(NC(=O)Cc3cccs3)sc2c1	2%
CCOCCn1ccc2c(OCC(=O)NCc3ccc(F)cc3)cccc2c1=O	4%
COc1ccccc1CC(=O)N1CCN(c2ccccc2)CC1	-3%
CN(C)C(=O)c1cc(C(=O)c2ccccc2F)c[nH]1	-2%
O=C(NNc1cccc(Cl)n1)Nc1ccccc1Cl	-2%
c1ccc(Cn2nnc3c(NCc4ccc5c(c4)OCO5)nc(C4CC4)nc32)cc1	-11%
O=C(Cc1ccccc1)NCC(=O)N1CCC1	31%[activator]
COc1cc(NC(=S)NC(=O)c2ccccc2C)ccc1NC(=O)c1cccs1	-5%
Cc1ccc(S(=O)(=O)N(C)CCCC(=O)Nc2ccccn2)cc1	163%[activator]
COc1cc2ccccc2cc1C(=O)N1CCN(c2nc3c(F)cc(F)cc3s2)CC1	-3%
CC12CCC(=O)N1C(C(=O)NNC(=O)c1cccc(Cl)c1)CS2 (stereo not drawn)	0%
Cn1cc(S(=O)(=O)N2CCN(c3ccccc3)CC2)c(=O)n(C)c1=O	-9%
CCOC(=O)c1ccc(NC(=S)N(Cc2cccnc2)Cc2ccco2)cc1	-4%
O=C(COC(=O)CNC(=O)c1ccc(Cl)cc1Cl)Nc1cccc(S(=O)(=O)N2CCCC2)c1	-8%

The list goes on (two carried over from the part before).
SMILES	VDR inhibitor
CCOC(=O)c1ccc(NC(=S)N(Cc2cccnc2)Cc2ccco2)cc1	-4%
O=C(COC(=O)CNC(=O)c1ccc(Cl)cc1Cl)Nc1cccc(S(=O)(=O)N2CCCC2)c1	-8%
Cc1ccc2c(c1)N(C(=O)N1CCC(C(=O)NCCC3=CCCCC3)CC1)CC(C)O2 (stereo not drawn)	18%
CCC1CCCCN1C(=O)c1cccc(S(=O)(=O)Nc2cc(C(F)(F)F)ccc2Cl)c1 (stereo not drawn)	3%
O=C(NCC1CCCN(Cc2ccc3nonc3c2)C1)c1cccc(C(F)(F)F)c1 (stereo not drawn)	8%
CC1(c2ccc(OC(F)F)cc2)NC(=O)N(CC(=O)NCCC2=CCCCC2)C1=O (stereo not drawn)	9%
Cc1cccc(NC(=O)N2CCC(n3c(C)nc4cccnc43)CC2)c1	12%
c1c2c(cc3sc(N4CCOCC4)nc13)OCCO2	11%
O=C(CCCn1c(=S)[nH]c2ccc(Br)cc2c1=O)NCC1CCCO1 (stereo not drawn)	9%
CC(=O)C1=C(O)C(=O)N(CCCn2ccnc2)C1c1ccc(C)cc1 (stereo not drawn)	6%
CCc1nnc(NC(=O)CN2CCN(Cc3ccc(C)cc3)CC2)s1	-7%
O=C(Nc1ccc(F)cc1)c1cccc(N2CCCS2(=O)=O)c1	0%
COc1cc(C(=O)NC(c2ccc(Cl)cc2)c2cc(Cl)c3cccnc3c2O)cc(OC)c1OC (stereo not drawn)	-3%
C=CCNCc1cccn1-c1ccccc1	1%
O=S(=O)(c1ccccc1Br)N(Cc1ccccc1)CC(O)COCc1ccccc1 (stereo not drawn)	1%
Cc1ccc(N(Cc2cc3ccc(C)cc3[nH]c2=O)S(C)(=O)=O)c(C)c1	1%
CCOc1ccc(NC(=O)CN2CC(c3ccccc3)CC2=O)cc1 (stereo not drawn)	-16%
COc1ccc(-n2c(Cc3cccn3C)nnc2SCC(=O)Nc2nccs2)cc1	5%
CCCCNC(=S)NNC(=O)c1csc(CC)c1	3%
CC(=O)Nc1cccc(NC(=O)/C=C/c2ccc(S(=O)(=O)N3CCOCC3)cc2)c1	-7%
Clc1cccc(CSc2ncnc3c2ncn3C2CCCCO2)c1 (stereo not drawn)	12%
COc1ccc(CCNC(=O)CCn2c(SCC(=O)N3CCCC3)nc3ccccc3c2=O)cc1OC	4%
CN1CCN(CC(=O)Nc2ccccc2[N+](=O)[O-])CC1	-4%
Cc1cc(=O)[nH]c(SCC(=O)N2c3ccccc3CC2C)n1 (stereo not drawn)	-1%
O=C1CCC(C(=O)NCCCn2ccnc2)N1 (stereo not drawn)	-7%
CC(C)OP(=O)(c1ccc(N(C)C)cc1)C(O)c1ccncc1 (stereo not drawn)	-11%
CC(C)c1nc(C(=O)N2CCCC(CCC(=O)N(C)CCc3ccccn3)C2)cs1 (stereo not drawn)	10%
CC(C)Cn1cnc2c1c(=O)n(CC(=O)NN)c(=O)n2Cc1ccccc1	-7%
CC12CCC(C(=O)O)(C/C1=N\O)C2(C)C (stereo not drawn)	5%&3%
CC1Oc2ccccc2N(CC(=O)NCCCN2CCOCC2)C1=O (stereo not drawn)	0%
CC1CCCN(Cc2c(O)ccc3c(=O)c(Oc4ccc(C(C)(C)C)cc4)c(C(F)(F)F)oc23)C1 (stereo not drawn)	-2%
O=C1OC(Cc2ccccc2)C(c2ccccc2)C1=O (stereo not drawn)	-3%
OC(c1nc2ccccc2[nH]1)C(O)c1nc2ccccc2[nH]1 (stereo not drawn)	-13%
CCOc1ccc(CCNC(=O)C2CCN(c3nn4c(=O)cc(C)nc4s3)CC2)cc1OCC	6%
CCOC(=O)[C@H]1[C@H]2COc3ccc(Br)cc3[C@@H]2N2C(=O)CN(Cc3ccc(C)cc3)C(=O)[C@@]12C	-1%
CC(C)CNC(=O)COc1ccc(Sc2ccc(OCC(=O)NCC(C)C)cc2)cc1	-11%
CC1(c2ccccc2)CC(C)(C)N2C(=O)Cc3cccc1c32 (stereo not drawn)	-15%
CCOc1ccccc1NC(=O)C(C)N(c1ccccc1)S(C)(=O)=O (stereo not drawn)	11%
CCOc1ccccc1NC(=O)C(=O)CC(=O)c1ccc(OC)cc1	-8%
O=[N+]([O-])c1ccc(-c2n(-c3ccccn3)c3ccccc3[n+]2-c2ccccn2)cc1	12%
COc1ccc(S(=O)(=O)N2CCOC23CCN(S(=O)(=O)c2cc(F)ccc2F)CC3)cc1	-9%
N#CC(C(=O)NCc1ccccc1)c1nc2ccccc2nc1N1CCCC1 (stereo not drawn)	-24%
O=C(Nc1cccc(C(F)(F)F)c1)c1cc(-c2ccc3c(c2)OCCO3)on1	-4%
COc1ccc(CCN=C(N)C(C)c2ccccc2)cc1OC (stereo not drawn)	-6%
O=[N+]([O-])c1ccccc1NCc1ccccc1Cl	-22%
CC(C)(CNC(=O)c1ccc(Br)o1)CNC(=O)c1ccc(Br)o1	0%
COc1cc(NC(=O)Cn2c(-c3ccccc3)cc(C(C)=O)c2C)cc(OC)c1	12%
Cc1ccc(C(=O)COC(=O)c2cc(Cl)ccc2O)cc1[N+](=O)[O-]	-7%
COC1OC(CO)C(N=C(C)C)C1O (stereo not drawn)	?
Cc1cc(C(=O)N/N=C/c2cc(Br)cc(Br)c2OC(=O)c2cccc(F)c2)n[nH]1	4%
Cc1cc(CSc2ccccc2)ccc1NC(=O)c1ccc(CN2CCOCC2)cc1	-9%
O=C(Nc1ccccc1)c1cc2ccccc2o1	14%
COCCNC(=S)c1ccc(Br)cc1	?
COc1ccc(Cn2c(=O)[nH]c3cc(C(=O)NCCCN4CCCCC4)ccc3c2=O)cc1	-12%
CCc1cccc(NC(=O)CCS(=O)(=O)c2ccc(C)cc2)c1	6%
CCCCCCCCCCCCCCCC[n+]1cccc2ccccc21	-27%
CCOC(=O)c1ccc(NC(=S)NCCC2=CCCCC2)cc1	-13%
Cc1c(NC(=O)c2ccc(S(=O)(=O)N3CC(C)OC(C)C3)cc2)c(=O)n(-c2ccccc2)n1C (stereo not drawn)	-8%
O=[N+]([O-])c1cccnc1N1CCN(c2ccc(F)cc2)CC1	-16%
Cc1ccc(NC(=O)CN2CCCN(S(=O)(=O)c3ccc(Br)s3)CC2)cc1	-13%
COc1ccc(C(=O)NC(=S)Nc2ccc3[nH]c(=O)[nH]c3c2)cc1	-5%
Cc1ccc(S(=O)(=O)Nc2ccc3oc(=O)sc3c2)c(C)c1	?

6 compounds from above, sorted by the value under VDR inhibitor, descending:
| SMILES | VDR inhibitor |
| --- | --- |
| O=C(Nc1ccccc1)c1cc2ccccc2o1 | 14% |
| Cc1cc(C(=O)N/N=C/c2cc(Br)cc(Br)c2OC(=O)c2cccc(F)c2)n[nH]1 | 4% |
| COc1ccc(C(=O)NC(=S)Nc2ccc3[nH]c(=O)[nH]c3c2)cc1 | -5% |
| COc1ccc(Cn2c(=O)[nH]c3cc(C(=O)NCCCN4CCCCC4)ccc3c2=O)cc1 | -12% |
| CCOC(=O)c1ccc(NC(=S)NCCC2=CCCCC2)cc1 | -13% |
| CCCCCCCCCCCCCCCC[n+]1cccc2ccccc21 | -27% |

Three compounds already listed, arranged by formula weight, rising:
SMILES	VDR inhibitor
COCCNC(=S)c1ccc(Br)cc1	?
CCOC(=O)c1ccc(NC(=S)NCCC2=CCCCC2)cc1	-13%
COc1ccc(C(=O)NC(=S)Nc2ccc3[nH]c(=O)[nH]c3c2)cc1	-5%

(continued)
SMILES	VDR inhibitor
Cc1ccn2c(=O)nc(SCC(=O)Nc3cc(C)on3)nc2c1	9%
O=C(O)C1CCCCC1C(=O)Nc1cccc(C(=O)N2CCCCC2)c1 (stereo not drawn)	-13%
COC(=O)c1ccc(C2C(C#N)=C(N)Oc3cc(O)ccc32)cc1 (stereo not drawn)	7%
Cc1ccc(NC(=S)Nc2c(C)n(C)n(-c3ccccc3)c2=O)cc1Cl	-9%
CS(=O)(=O)N(Cc1ccc(Cl)cc1)c1ccc(C(=O)NCCSCc2ccco2)cc1	2%
COc1ccc(C(=O)N2CC3(C)C4CCC3(C)C2(C#N)C4)cc1OC (stereo not drawn)	-14%
CCc1nnc(NC(=O)CSc2nccn2-c2cc(C)cc(C)c2)s1	-15%
Cc1cccc(OCC(=O)Oc2ccc(Cl)cc2)c1	-4%
COc1ccc(-c2cc(OC(=O)c3ccccc3)c3c(C)oc(C)c3c(=O)c2)cc1OC	-7%
Cc1ncc(CO)c(CNc2ccc(-c3nc4ccccc4[nH]3)cc2)c1O	59%[activator]
c1ccc2c(-n3cnnn3)cccc2c1	-8%
O=C1CC2c3ccccc3C1C1C(=O)N(Cc3ccccc3)C(=O)C21 (stereo not drawn)	-3%
